HSV replic up = increases HSV replication in cells | HSV replication augmentation in cells, fold increase | maximum fold increase | actives 0.005% (n = 220,000);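 active means peak rise of 1.5-fold or more in the series; inconclusive means self-fluorescent or not available for retest; tested in PC3 cells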;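 further: first round at 10 µM; read as green reporter fluorescence; hits show the peak of a series up to 25 µM; 1 = signal of infected wells without compound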
INS promoter inh = TRM-6 insulin promoter activity inhibition | inhibition, % at 2 µM | actives 0.9% (n = 130,000) | TRM-6 cells (human fetal islet line), insulin promoter-eGFP reporter, imaging; reporter expression induced with tamoxifen | AID 1273;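 active means inhibition above the mean plus 3 SD, with well images judged a real hit on visual review, cut at about 60% in these data, passing the limit was not always enough; inconclusive means inhibition over the cutoff but images rejected on review; inactive means inhibition not above the cutoff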
RGS16-Gao = modulates binding between human RGS16 and Galphao. bead-based flow cytometry RGS16-Galphao binding, fluorescence; actives lie on both sides. binding response (% of control), % at 10 µM. actives 0.38% (n = 220,000);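 active means below 25% or above 175%, edge rows of some plates excepted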;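 further: Galphao activated by GDP with aluminum fluoride before binding; 100% = wells without compound and 0% = beads without RGS; some results beyond the cut were filed as inactive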
PKD1 inh = PKD1 (human) kinase inhibition; PKD1 kinase fluorescence polarization assay; inhibition, %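 (about 10 µM by stock and volumes)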; actives 0.056% (n = 200,000); AID 797;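 active means inhibition of 50% or more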;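 further: controls were vehicle for no effect and a reference inhibitor for full effect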
Target sequence (Q15139 whole entry, looked up): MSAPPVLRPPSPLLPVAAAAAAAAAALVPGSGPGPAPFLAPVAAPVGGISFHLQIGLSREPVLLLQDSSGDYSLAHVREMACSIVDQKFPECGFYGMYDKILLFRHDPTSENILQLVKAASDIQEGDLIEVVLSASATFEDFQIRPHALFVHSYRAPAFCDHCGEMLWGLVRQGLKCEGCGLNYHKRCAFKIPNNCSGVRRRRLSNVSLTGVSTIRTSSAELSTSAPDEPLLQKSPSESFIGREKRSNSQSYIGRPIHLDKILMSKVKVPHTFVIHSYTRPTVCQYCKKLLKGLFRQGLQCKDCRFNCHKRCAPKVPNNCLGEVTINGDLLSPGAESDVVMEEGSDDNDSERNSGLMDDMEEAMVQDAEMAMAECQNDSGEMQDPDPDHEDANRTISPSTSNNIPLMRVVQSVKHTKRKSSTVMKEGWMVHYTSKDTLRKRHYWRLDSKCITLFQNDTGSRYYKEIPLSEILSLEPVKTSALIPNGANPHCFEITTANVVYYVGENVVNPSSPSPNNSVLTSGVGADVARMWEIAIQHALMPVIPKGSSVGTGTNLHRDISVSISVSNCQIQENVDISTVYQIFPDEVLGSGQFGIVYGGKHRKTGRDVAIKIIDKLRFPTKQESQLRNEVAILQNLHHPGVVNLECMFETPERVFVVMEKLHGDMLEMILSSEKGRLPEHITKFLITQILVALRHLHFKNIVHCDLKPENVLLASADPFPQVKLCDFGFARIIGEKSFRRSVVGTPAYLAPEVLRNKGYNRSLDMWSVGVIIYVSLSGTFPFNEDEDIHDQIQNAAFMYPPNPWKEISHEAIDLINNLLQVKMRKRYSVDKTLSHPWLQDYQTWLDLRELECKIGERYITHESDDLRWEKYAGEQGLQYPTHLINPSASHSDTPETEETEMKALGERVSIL
GALR2 agonist = activates the human galanin receptor 2; O43603; GALR2-expressing cells, agonist activation read-out; activation, %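 (tested at 5 µM)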; actives 0.48% (n = 140,000);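 active means above mean plus 3 SD of all compounds, about 5% in these data, not always enough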;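 further: 0% = vehicle buffer wells and 100% = reference agonist at full effect; tested in CHO reporter cells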
INS promoter inh cell count = second read-out of INS promoter inh, no call of its own (marks repeat the call); normalized cell count, %; measured here: cell count, toxicity; reference of the scale not given here;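 cells exposed to compound for 48 h; stained nuclei by imaging scaled within each plate; lower means fewer cells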
HSV replic up primary fold = recorded beside HSV replic up, whose call it bears; fold increase; compound at 10 µM; measured here: primary screen fold increase 10 uM; tested in PC3 cells;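 GFP signal in the first replicate; 1 = infected wells without compound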
* marks the source's active call; other numbers are inactive results; i = inactive; ? = inconclusive; . = not tested or not shown; [ ] = remark or other dose.

SMILES	HSV replic up	HSV replic up primary fold	INS promoter inh	INS promoter inh cell count	RGS16-Gao	PKD1 inh	GALR2 agonist
O=C(c1ccc(=O)[nH]c1)N(Cc1cccs1)C1(C(=O)NC2CCCC2)CCCCC1	i	0.95	-60	35	259*[activator]	1	-2.5
CC1Cc2ccccc2N1C(=O)CSc1nc2ccccc2o1 (stereo unspecified)	i	0.76	-7	88	96	0	-2.5
Cc1nc2sc3c(c2c(=O)o1)CC(C)(C)OC3	i	0.82	14	109	105	-2	-1.0
CCOC(=O)N1CCN(C(=O)c2cccn3c(=O)c4sccc4nc23)CC1	i	0.99	-93	93	104	-5	-2.3
Cc1ccc(NC(NC(=O)c2cccnc2)C(Cl)(Cl)Cl)cc1 (stereo unspecified)	i	0.97	8	162	102	18	-1.8
O=C(N=c1ccn(-c2nc3ccccc3nc2NS(=O)(=O)c2ccc(Cl)cc2)cc1)c1cccs1	?	.	.	.	98	.	.
CCOC(=O)Cc1c(C)c2c(C)nn(-c3ccccc3)c2oc1=O	i	0.93	-54	91	105	6	-2.1
Cc1ccc(C(=O)N(CCCN(C)C)c2nc3ccc(Cl)cc3s2)cc1C	i	0.87	-29	69	94	-4	.
COc1ccnc(N2CCN(c3ccc(Cl)cc3)CC2)c1C#N	i	0.88	-19	53	94	-2	-1.6
CCCOC1CCCN(Cc2nc(-c3ccc(C(=O)OC)cc3)no2)C1 (stereo unspecified)	i	1.1	.	.	105	.	.
O=C(C(Cc1ccccc1)N1C(=O)C2C3CCC(C3)C2C1=O)N1CCCCC1 (stereo unspecified)	i	0.89	.	.	89	-3	-3.1
C=CCNC(=O)C(=O)NCCCN1CCOCC1	i	0.96	.	.	84	-1	.
COc1ccc(-n2c(C)cc(C(=O)COc3ccc(C)nc3[N+](=O)[O-])c2C)cc1	i	1	-26	69	102	-6	-0.4
O=C1C=C(Nc2ccc(O)cc2)CC(c2ccco2)C1 (stereo unspecified)	i	1.1	-133	77	33	5	-0.1
Cn1c(=O)cc(OCCCC(=O)N2CCN(c3ccccn3)CC2)c2ccccc21	i	0.82	-20	165	104	-3	0.0
CSc1ccc(S(=O)(=O)Nc2ccc3c4c(cccc24)CC3)cc1	i	1.2	-3	47	102	-7	-1.0
Cc1cc([N+](=O)[O-])ccc1-c1ccc(C2Nc3ccccc3C(=O)N2O)o1 (stereo unspecified)	i	0.79	-27	100	98	4	0.5
O=c1cc(CSc2nnc(Nc3ccccc3)s2)nc2sccn12	i	0.92	-38	78	97	-5	-1.0
N#Cc1c(-c2ccc(F)cc2)nc2n(c1=O)CCS2	i	0.62	20	112	98	-1	0.2
COc1ccccc1C(=O)N/C(=C/c1ccccc1)C(=O)Nc1ccc(C(=O)O)cc1	i	0.97	14	62	100	3	.

Exported in markdown: part of the list above.
| Structure | HSV replic up | HSV replic up primary fold | INS promoter inh | INS promoter inh cell count | RGS16-Gao | PKD1 inh | GALR2 agonist |
| --- | --- | --- | --- | --- | --- | --- | --- |
| Cc1cc([N+](=O)[O-])ccc1-c1ccc(C2Nc3ccccc3C(=O)N2O)o1 (stereo unspecified) | i | 0.79 | -27 | 100 | 98 | 4 | 0.5 |
| O=c1cc(CSc2nnc(Nc3ccccc3)s2)nc2sccn12 | i | 0.92 | -38 | 78 | 97 | -5 | -1.0 |
| N#Cc1c(-c2ccc(F)cc2)nc2n(c1=O)CCS2 | i | 0.62 | 20 | 112 | 98 | -1 | 0.2 |

New compounds follow.
SMILES	HSV replic up	HSV replic up primary fold	INS promoter inh	INS promoter inh cell count	RGS16-Gao	PKD1 inh	GALR2 agonist
CCCCNC(=O)COC(=O)c1ccc(F)cc1Cl	i	1	.	.	101	-4	.
Cc1ccccc1-c1oc(C)c(C)[n+]1[O-]	i	0.92	.	.	104	-1	.
Cc1cc2nc(Sc3c([N+](=O)[O-])nc(C)n3Cc3ccccc3)[nH]c2cc1C	i	0.72	.	.	94	3	-1.0
COc1ccc(N2C(=O)C(Cl)=C(N(CCO)Cc3ccccc3)C2=O)cc1	i	0.98	-27	123	99	5	-2.6
CNC(=O)c1cc(Cl)c(OC)c(OC)c1	i	0.98	.	.	93	-1	-0.3
Cc1ccc(C)c(S(=O)(=O)Nc2ccc3sc(C)nc3c2)c1	i	0.8	5	85	108	5	-2.0
O=C(COc1ccc(S(=O)(=O)NC2CCCCC2)cc1)NCC1CCCO1 (stereo unspecified)	i	0.76	-53	112	105	-10	-1.9
CCOc1ccc(C(C)(C)C)cc1S(=O)(=O)N1CC(C)OC(C)C1 (stereo unspecified)	i	0.91	-41	50	104	-3	-1.0
Oc1ccc2ccccc2c1/C=N/Nc1nnc(-c2ncc[nH]2)c2ccccc12	i	0.7	5	127	101	-10	-1.4
CC(C)OCCCNC(=O)c1ccc(NS(C)(=O)=O)cc1	.	.	-9	135	97	-1	-2.4
CCCc1[nH]c(=O)c(C#N)c2c1COC(C)(C)C2	i	1.2	-4	113	106	-6	-2.0
COc1cccc(N(CC(=O)N2CCN(c3ccccc3OC)CC2)S(C)(=O)=O)c1	i	0.98	-4	85	114	6	-0.3
O=C(O)/C=C/c1ccc(-n2ccnc2)cc1	i	1.1	.	.	99	.	.
COc1ccc(S(=O)(=O)NC2CC2)cc1-n1cnnn1	i	1.1	.	.	102	3	.
Cc1cccc(N2CCN(Cc3nc(-c4ccccc4Cl)oc3C)CC2)n1	i	0.95	.	.	109	-9	.
COc1cc(SC)ccc1C(=O)Nc1ccc(S(=O)(=O)N2CCCC2)cc1	?	.	.	.	101	-8	0.1
Cc1cc(Oc2ccc(C#N)cc2)nc(N2CCOCC2)n1	i	0.87	51	63	45	5	-1.3
Cc1ccc(NCc2nnc(SCc3ccc(C#N)cc3)n2Cc2ccco2)c(C)c1	i	0.94	.	.	92	1	-2.4
CNC(=O)c1sc2nc(-c3ccc(OC)cc3)cn2c1C	.	.	.	.	101	3	-1.3
Cc1cc(C)nc(N(C#N)Cc2ccccc2)n1	i	0.81	70	105	88	-3	-2.2
CN1CC(=O)N(CC(=O)Nc2ccc(Br)cc2F)C1=O	i	1.1	.	.	92	1	.
COCCNC(=O)C(c1ccc(C)o1)N(C(=O)c1snc(C(N)=O)c1N)c1ccc(C)cc1 (stereo unspecified)	i	0.87	43	63	100	4	1.2
CSCCC(NC(=O)c1occc1C)C(=O)O (stereo unspecified)	i	0.77	42	82	99	-4	-1.8
CC(=O)c1sc(NC(=O)C2(F)C(F)(F)C(F)(F)C(F)(F)C(F)(F)C2(F)F)nc1C	i	0.77	.	.	101	-10	-2.1
CC(=O)c1ccc(NC(=O)Cn2nc(C)c([N+](=O)[O-])c2C)cc1	i	0.87	.	.	99	-6	.
CCCCCCC1CC(=O)NC(=S)N1 (stereo unspecified)	i	0.86	-27	123	54	-3	.
Cc1ccc2[nH]c(=O)c3cc(C(=O)N4CCN(C(=O)c5ccco5)CC4)sc3c2c1	.	.	.	.	90	-7	-1.2
c1ccc(CNc2nc(N3CCOCC3)nc(N3CCOCC3)n2)cc1	i	1.1	50	89	103	-1	-1.8
Cc1cc(NS(=O)(=O)c2ccc(Nc3nc(-c4sc(NC(=O)c5ccccc5)nc4C)cs3)cc2)no1	i	0.97	46	137	100	0	-2.7
O=C(Cn1cnc2sc(-c3ccccc3)cc2c1=O)N1CCOCC1	i	1.2	31	153	57	-3	-1.8

Profiles, looked up by structure:
Entry for c1ccc(CNc2nc(N3CCOCC3)nc(N3CCOCC3)n2)cc1 = HSV replic up: i; HSV replic up primary fold: 1.1; INS promoter inh: 50; INS promoter inh cell count: 89; RGS16-Gao: 103; PKD1 inh: -1; GALR2 agonist: -1.8
Entry for Cc1cc(NS(=O)(=O)c2ccc(Nc3nc(-c4sc(NC(=O)c5ccccc5)nc4C)cs3)cc2)no1 = HSV replic up: i; HSV replic up primary fold: 0.97; INS promoter inh: 46; INS promoter inh cell count: 137; RGS16-Gao: 100; PKD1 inh: 0; GALR2 agonist: -2.7

Additional records
SMILES	HSV replic up	HSV replic up primary fold	INS promoter inh	INS promoter inh cell count	RGS16-Gao	PKD1 inh	GALR2 agonist
CC(C(=O)OCC(=O)c1cccc([N+](=O)[O-])c1)N1C(=O)C2C3CCC(C3)C2C1=O (stereo unspecified)	i	0.99	21	125	99	-2	-1.2
CCOC(=O)CSc1n[nH]c(NC(=O)c2ccc(F)cc2)n1	i	1.4	25	112	95	-9	-0.8
Cc1ccc(NC(=S)N(CCCN(C)C)Cc2cc3cc4c(cc3[nH]c2=O)OCO4)cc1	i	0.87	.	.	99	-1	.
CN(C)CCCNC(=S)NCc1ccc(Cl)cc1	i	0.85	-3	120	106	8	-0.7
CC(C)(C)NC(=O)COC(=O)c1cc(Br)ccc1Cl	i	0.91	.	.	104	-8	-0.4
Cc1cccc(S(=O)(=O)Nc2nc3ccccc3nc2Nc2ccc3c(c2)OCO3)c1	i	1.1	20	153	93	0	-2.2
Cc1cccc(NC(=S)NCc2cccs2)c1	i	0.94	.	.	100	-5	.
O=C(COC(=O)c1ccc(Cl)c(S(=O)(=O)NCc2ccccc2)c1)NCC1CCCO1 (stereo unspecified)	i	0.99	.	.	104	2	.
Cc1ccc(C(=O)N/N=C\c2ccc[nH]2)cc1[N+](=O)[O-]	i	1	.	.	108	-2	-2.9
N#Cc1ccc(NCC(=O)Nc2ccc3c(c2)OCCO3)cc1	i	0.92	-25	116	103	-5	.
CCCCOc1ccc(Br)cc1CSC(=N)N	i	0.53	17	195	107	-1	-0.2
COc1ccc(-n2c(-c3ccccc3)nnc2-c2ccc(Cl)cc2)cc1	i	1	.	.	99	-14	-1.2
Cn1c2c(c(=O)n(C)c1=O)C1c3cc(Cl)ccc3OCC1CO2 (stereo unspecified)	i	0.96	57	105	102	-10	-2.9
O=C(CSc1nnc2c(Cl)cc(Cl)cn12)N1CCN(S(=O)(=O)c2ccccc2)CC1	i	1.1	.	.	101	-5	-1.8
COc1ccc(-n2c(SCC(=O)Nc3ccccc3OC)nc(O)cc2=O)cc1	i	1	.	.	89	.	.
Cn1c(-c2ccc(Cl)cc2)cnc1N	i	0.97	.	.	176	4	-1.5
C=CCN(C(=O)CNC(=O)c1cccs1)C(C(=O)NC1CCCCC1)c1cccnc1 (stereo unspecified)	i	0.97	.	.	87	-2	.
CCSc1nnc(NC(=O)COc2ccc3ccccc3c2)s1	i	0.9	13	117	117	0	-0.9
CSCCC(NS(=O)(=O)c1ccc2ccccc2c1)C(=O)OCC(=O)c1ccc(C(C)C)cc1 (stereo unspecified)	i	0.88	-19	98	9	-4	-1.3
Cc1ccc(S(=O)(=O)N2CCC(C(=O)OC(C)C(=O)NCc3ccc4c(c3)OCO4)CC2)cc1 (stereo unspecified)	i	0.81	21	88	95	-6	-1.3
COc1ccc2ccccc2c1CN1CCN(C)CC1	i	0.97	-50	147	121	3	-0.8
COC(=O)c1ccc(C(=O)OC)c(NC(=O)CSc2ccccn2)c1	i	1.1	.	.	101	-7	-1.3
COc1ccc(S(=O)(=O)N2CCOCC2)cc1NC(=O)CN1CCC(Cc2ccccc2)CC1	i	0.89	0	59	106	-6	0.0
O=C(CNC(=O)c1ccncc1)N/N=C/c1ccccc1[N+](=O)[O-]	i	0.94	44	99	100	-7	.
CC(C)(C)c1cc(NC(=O)Nc2ccc(Cl)cc2Cl)no1	i	0.83	.	.	101	.	.
O=C(N/N=C/c1ccc(-c2ccc([N+](=O)[O-])cc2)o1)[C@H]1C[C@@H]1c1ccccc1	i	1.1	.	.	95	.	.
CCN(C(=O)COC(=O)c1ccc(S(=O)(=O)N2CCCc3ccccc32)cc1)C1CCS(=O)(=O)C1 (stereo unspecified)	i	1	50	172	106	-4	.
Cc1ccccc1CCN(C(=O)Cn1nnc2ccccc21)C(C(=O)NC(C)(C)C)c1ccsc1 (stereo unspecified)	i	0.92	13	141	100	-8	-3.4
COc1ccc(OC)c(NC(=O)CC2SC(=NCc3ccccc3)NC2=O)c1 (stereo unspecified)	i	0.67	.	.	98	-9	.
CCC(=O)N1N=C(c2ccc(C)cc2)CC1c1ccco1 (stereo unspecified)	i	0.98	.	.	88	.	.
COc1ccc(N2C(=O)C3CCCN3C2c2ccccc2OC)cc1 (stereo unspecified)	i	0.93	.	.	98	-3	-1.4
CC(=O)Nc1ccccc1C(=O)C(=O)Nc1ccc(C)c(C)c1	i	0.99	8	84	251*[activator]	-9	-1.2
Cc1cc(NCCCn2ccnc2)n2c(nc3ccccc32)c1C#N	i	0.98	29	123	130	-9	0.1
COc1cccc(C2C3=C(N=C4SCC(=O)N42)c2ccccc2CC3)c1OC (stereo unspecified)	i	0.92	-11	102	97	-1	-0.5
CC(=O)NC1(c2nnnn2CCOC(=O)Nc2ccc(Cl)cc2)CCCCC1	i	0.79	-110	96	104	-9	-1.0

Compound activity (PubChem BioAssay)
